UCH37 DUB inh = inhibitors of human UCH37 deubiquitinase, primary screen, biochemical, Ub-AMC cleavage, fluorescence; inhibition, % (concentration not given with the values); AID 588478, 2011; Ubiquitin carboxyl-terminal hydrolase isozyme L5 (Homo sapiens), Q9Y5K5; purified proteasome/UCH37; 0.33% of 330,000 active;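 active means mean of two replicates above 20%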;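 further: 0% = compound-free wells with enzyme and 100% = wells lacking proteasome; stock transfer was 100 nL into about 20 µL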
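Reagent: Ub-AMC substrate; assay system: Proteasome-associated human UCH37 deubiquitinase; controls: no-proteasome and no-compound wells; read-out: % inhibition of Ub-AMC cleavage fluorescence; timing: 30 min preincubation with enzyme, 25 min cleavage at room temperature; signal: AMC fluorescence from Ub-AMC cleavage, excitation 355 nm, emission 460 nm; buffer or medium: Tris-HCl pH 7.4 plus ovalbumin, ATP-MgCl2, DTT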
FGF22 binding = binders of human FGF22 protein, primary screen, FGF22 synaptogenesis inhibitor project, biophysical, thermal shift, single point | Fibroblast growth factor 22 (Homo sapiens), Q9HCT0 | calls only at 9.99 µM | 1.5% of 340,000 active | recombinant FGF22 thermal shift, SYPRO orange fluorescence; percent of sucrose octasulfate shift, DMSO zero;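 active means melting point raised past a set limit in the mean and every replicate; three in four hits are not shown here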
Target sequence (Q9HCT0 whole entry, looked up): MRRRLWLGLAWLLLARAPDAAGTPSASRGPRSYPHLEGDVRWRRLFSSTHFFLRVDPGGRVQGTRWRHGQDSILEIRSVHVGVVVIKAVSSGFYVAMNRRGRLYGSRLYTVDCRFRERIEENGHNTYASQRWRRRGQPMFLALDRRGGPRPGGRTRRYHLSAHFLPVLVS
LANA-H2B inh = blockers of LANA interaction with H2A/H2B – biochemical, FP readout, HTS, primary screen | cell-free LANA-H2A/H2B peptide, fluorescence polarization | inhibition, % (no concentration beside the values) | 0.6% of 320,000 active | AID 2629, 2010; in the data active means inhibition mostly above about 10%, no sharp cut-off; inactive means mostly below about 6.7%;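 further: stock transfer was 7.5 nL into about 10 µL; 0% = median of vehicle wells and 100% = median of positive control wells; one replicate is shown; the record names a cut of 25% in any replicate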
ALR H2O2 inh = inhibitors of human ALR sulfhydryl oxidase, primary screen, biochemical, H2O2 detection, HRP-luminol luminescence, single point; inhibition, % (test concentration not listed); AID 485317, 2010; purified ALR, DTT oxidation; 3.8% of 290,000 active;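 active means mean and each replicate at 75% or more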;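 further: stock transfer was 7.5 nL into about 7.5 µL; 0% = neutral wells and 100% = wells with inactivated enzyme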
Ecoli growth = E. coli growth inhibition, primary screen, OD600. Escherichia coli growth, 23 h; stronger effect = lower value. OD600 absorbance (no concentration beside the values). 0.21% of 330,000 active. AID 1053175, 2014;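 active means OD600 absorbance below the run mean of sample wells minus 3.6 SD, in any replicate, cut at about 0.56 in these data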;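 further: stock transfer was 300 nL into about 60 µL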
Beta2AR agonist = beta2AR agonists driving receptor internalization, primary screen, cell-based, FAP fluorogen, flow cytometry; Am2.2-beta2AR cells; reference of the scale not given here; response, % (concentration not given with the values); 0.43% of 340,000 active; Beta-2 adrenergic receptor (Homo sapiens), P07550;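 active means response above a set limit, near 3 SD of response in nonfluorescent compounds, cut at about 42% in these data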;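 further: stock transfer was 100 nL into about 11 µL; a reference agonist was the positive control; negative values mostly stem from fluorescent compounds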
Target sequence (P07550 whole entry, looked up): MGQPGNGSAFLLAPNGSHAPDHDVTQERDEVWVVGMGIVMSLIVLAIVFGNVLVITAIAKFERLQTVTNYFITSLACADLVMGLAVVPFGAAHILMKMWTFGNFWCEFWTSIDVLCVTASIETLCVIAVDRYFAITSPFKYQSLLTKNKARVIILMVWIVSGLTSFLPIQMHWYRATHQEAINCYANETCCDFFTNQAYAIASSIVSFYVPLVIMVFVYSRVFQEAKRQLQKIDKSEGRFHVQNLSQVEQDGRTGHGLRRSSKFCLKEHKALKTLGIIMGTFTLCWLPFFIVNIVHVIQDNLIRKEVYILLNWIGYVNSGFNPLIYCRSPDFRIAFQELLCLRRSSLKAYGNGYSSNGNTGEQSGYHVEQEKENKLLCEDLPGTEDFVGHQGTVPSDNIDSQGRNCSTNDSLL
HNF4A DNA FP = change in binding of human HNF4A to DNA, primary screen, biochemical, fluorescence polarization, FITC-DNA; Hepatocyte nuclear factor 4-alpha (Homo sapiens), P41235; 1 h; activity change, % at 10 µM; 0.3% of 360,000 active; in the data active means activity change above about 30%, passing the limit was not always enough;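 further: controls were the assay level and a saturating level of protein; the project sought stronger binding though the title names inhibitors; some compounds called inactive have numbers as strong as hits; positive values seem to mean higher polarization but the record does not say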
Target sequence (P41235 whole entry, looked up): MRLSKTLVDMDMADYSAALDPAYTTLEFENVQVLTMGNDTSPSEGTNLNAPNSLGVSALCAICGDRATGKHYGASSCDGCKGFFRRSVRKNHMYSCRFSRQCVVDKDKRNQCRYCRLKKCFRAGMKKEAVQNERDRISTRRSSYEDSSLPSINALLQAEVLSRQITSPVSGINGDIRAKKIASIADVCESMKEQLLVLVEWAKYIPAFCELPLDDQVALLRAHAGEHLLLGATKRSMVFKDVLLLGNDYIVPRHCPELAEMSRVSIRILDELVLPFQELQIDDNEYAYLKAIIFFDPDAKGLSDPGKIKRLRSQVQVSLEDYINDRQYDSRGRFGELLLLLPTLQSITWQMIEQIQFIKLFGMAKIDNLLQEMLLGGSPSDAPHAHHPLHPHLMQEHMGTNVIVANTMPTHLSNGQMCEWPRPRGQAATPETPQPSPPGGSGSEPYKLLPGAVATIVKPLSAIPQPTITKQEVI
An asterisk follows results filed as active; i = inactive; · = not tested or not shown; + = active, no number. An excerpt, so the mix of outcomes need not match the whole.

Sequence of screens: ALR H2O2 inh	Beta2AR agonist	FGF22 binding	Ecoli growth	HNF4A DNA FP	LANA-H2B inh	UCH37 DUB inh
> CN(C)c1ccc(/C=C2/C(=O)NC(=O)N(CCc3ccc(F)cc3)C2=O)cc1
  5	7	·	·	0.3	8.1	6.1
> CN(C)Cc1c[nH]c2ccccc12
  -6	-3	+	0.73	-1.0	-1.9	3.9
> Cn1cccc1/C=C1/C(=O)NC(=O)N(C(C)(C)C)C1=O
  21	-20	i	0.7	24	4.7	2.7
> CC1(C)OC1COc1c2occc2cc2ccc(=O)oc12 (stereo not given)
  -3	-24	i	·	1.2	-5.5	·
> CCCCn1c(O)c(C(C)=Nc2c(C)n(C)n(-c3ccccc3)c2=O)c(=O)[nH]c1=O
  0	-19	·	0.72	0.6	-6.6	5.7
> COc1ccccc1Sc1ccccc1CC(C)N (stereo not given)
  -5	11	·	·	-12	-5.0	·
> COC(=O)C1=C(c2ccccc2)C[C@@H]2CC[C@H]1N2C(=O)NCCNC(C)=O
  -2	-1	i	·	1.6	-0.2	2.1
> Cc1cc(C=C2C(=O)N(C)C(=O)N(C)C2=O)c(C)n1-c1ccccc1
  8	15	·	0.73	-1.4	-1.3	-58
> COC(=O)c1ccc(/C=C2\N=C(SC)SC2=O)cc1
  99*	17	·	0.73	0.7	-6.2	1.5
> N#Cc1ccc(NC(=O)CN2CCCCCC2)cc1Cl
  ·	-4	i	0.64	-0.7	0.2	3.7
> CCn1cc(C=C2C(=O)NC(=O)NC2=O)c2ccccc21
  1	16	i	0.68	0.8	-6.5	1.2
> COC(=O)C1=C(c2cccc(OC)c2OC)C[C@@H]2CC[C@H]1N2C(=O)NCCNC(C)=O
  -12	-4	i	·	-2.8	5.3	-0.3
> COc1ccc(OC)c(NP(=O)(Oc2ccccc2)Oc2ccccc2)c1
  1	6	i	0.67	-3.3	2.3	5.4
> Cc1cccc(CNCCc2c[nH]c3ccccc23)c1
  12	2	·	·	-2.1	1.1	·
> Cc1cc(Oc2ccc(C(F)(F)F)cc2[N+](=O)[O-])c2c3c(c(=O)oc2c1)CCC3
  2	5	·	0.69	-3.1	2.3	0.3
> CCC(=O)N1CC(=O)Nc2ccc(F)cc2C1c1ccccc1 (stereo not given)
  1	4	i	0.72	0.2	-5.1	1.1
> COCCCN1Cc2ccccc2C1=N
  -6	-1	·	0.71	-2.4	6.9	0.2
> COC(=O)c1c(C)n(Cc2ccc3c(c2)OCO3)c2ccc(O)cc12
  4	0	·	0.69	-0.3	-0.7	5.6
> O=C(N/N=C1/CN2CCC1CC2)c1cccc(O)c1
  19	5	·	·	1.8	-6.8	·
> O=C(O)c1ccc(-n2c(O)c(/C=C3\C=Nc4ccccc43)c(=O)[nH]c2=O)cc1
  98*	-1	i	·	-3.2	-1.9	·
> O=C(CCC(=O)N1CC2C[C@@H](C1)Cn1c2cccc1=O)NCCc1ccccc1
  0	4	i	0.79	-2.0	0.6	-1.5
> O=C(c1ccc(F)c([N+](=O)[O-])c1)N1CC2CC(C1)c1cccc(=O)n1C2 (stereo not given)
  2	-4	i	0.67	-5.0	-3.2	5.6
> CC1CCC(NC(=O)CNC(=S)N2CC3CC(C2)c2cccc(=O)n2C3)CC1 (stereo not given)
  ·	9	i	0.69	0.4	1.9	1.7
> COC(=NC1CCCCC1)C(O)c1c[nH]c2ccccc12 (stereo not given)
  -8	0	·	0.72	4.4	2.6	4.8
> Cc1cc(C=O)c(C)n1CC1CCCO1 (stereo not given)
  21	3	·	0.74	1.5	-20	1.0
> O=C1NC(=O)C(C2CCCCCC2)C(=O)N1
  ·	1	i	0.64	3.4	·	2.3
> c1ccc2c(CNC3CCCCC3)c[nH]c2c1
  4	·	·	0.7	·	2.4	4.3
> O=C1NC(=O)C(=Cc2cn(CCOc3ccc4c(c3)OCO4)c3ccccc23)C(=O)N1
  ·	42	·	0.82	-0.9	6.3	4.6
> CC(=O)c1c(C)n(CCCOC(C)C)c2ccc(O)cc12
  -12	-9	·	0.71	4.6	-11	3.7
> CCc1c(C)nc(N)nc1N1N=C1SCC#N
  -6	1	·	0.67	2.6	-2.4	2.4
> c1cc2c(cc1CN1CCNCC1)OCO2
  -14	0	·	0.67	0.8	2.1	-0.2
> COC(=O)C1=C(c2ccc3ccccc3c2)C[C@@H]2CC[C@H]1N2C(=O)NC1CCCCC1
  -2	-5	·	0.75	-0.1	-0.4	-1.6
> CCNc1cc(N2CCNCC2)ccc1[N+](=O)[O-]
  -5	·	·	0.66	·	3.3	8.6
> COC(=O)C1=C(c2cc3ccccc3s2)C[C@@H]2CC[C@H]1N2C(=O)NCCO
  4	7	i	·	1.0	-4.1	3.8
> CN(C)c1ccc(/C=C/C=C/c2sc3ccccc3[n+]2C)cc1
  74	17	i	·	12	-0.3	·
> CC1CN(c2ccccn2)C(C)CN1C(=O)C(O)(c1ccccc1)c1ccccc1 (stereo not given)
  ·	30	i	0.67	-1.6	·	-0.2
> O=C(NC(C(Cl)Cl)N1CCOCC1)c1ccccc1 (stereo not given)
  -6	2	i	0.72	4.3	1.5	-1.1
> O=[N+]([O-])c1ccc(N2CCCCC2)c2ncccc12
  -28	-1	·	0.62	1.0	1.2	3.8
> Fc1ccc(N2CCN(Cc3ccc4c(c3)OCO4)CC2)cc1
  76*	-3	·	0.65	-2.0	-2.0	4.0
> CC(c1ccccc1F)n1cc(C(=O)Nc2ccc3nc[nH]c3c2)nn1 (stereo not given)
  -43	7	·	0.72	0.5	-5.0	6.4
> COc1cc2oc(=O)c(CC(=O)N3C[C@H]4C[C@@H](C3)c3cccc(=O)n3C4)c(C)c2cc1Cl
  ·	0	i	0.81	-4.4	·	-167
> CC(Cc1ccccc1)N(C)CC1C(=O)C2CCC1C2 (stereo not given)
  ·	7	i	·	-0.4	·	·
> O=c1[nH]c(=S)n(CCC2=CCCCC2)c(O)c1/C=N/Nc1ccccc1
  97*	1	i	0.73	6.8	-3.6	1.4
> O=Cc1c(C(=O)O)n(Cc2ccc(F)cc2Cl)c2ccccc12
  12	16	i	0.68	-2.2	1.9	6.0
> O=C1C(Cc2cnc[nH]2)NC(=S)N1c1ccccc1 (stereo not given)
  -13	8	i	0.69	-0.2	-0.7	-0.8
> COc1cc(C(=O)N2C[C@H]3C[C@@H](C2)c2cccc(=O)n2C3)cc(OC)c1OC
  -30	0	i	0.77	-2.8	1.3	-6.8
> C[C@H]1[C@@H](c2ccccc2)O[C@@H](c2ccccc2Br)N1C
  1	-14	i	·	-5.3	-1.8	3.5
> O=C1/C(=C\c2ccc3c(c2)OCO3)N2CCC1CC2
  -2	-1	i	0.62	-1.0	-2.1	6.0
> CCS(=O)(=O)NC(C)c1nnc2n1-c1ccc(Br)cc1C(c1ccccc1Cl)=NC2 (stereo not given)
  2	-8	i	0.66	0.1	0.4	2.3
> CN1CCC(C)(O)C2CCCCC21 (stereo not given)
  -30	-6	i	0.72	-1.8	0.9	-1.9
> C=CCn1c(O)c(C(CC)=NC2CC2)c(=O)[nH]c1=O
  -2	3	·	0.66	0.7	-2.7	1.1
> CN(CC(=O)Nc1ccccc1-c1ccccc1)C1CCCCC1
  1	-1	·	0.66	-4.6	-3.8	0.4
> CCOP(=O)(Nc1ccc2c(c1)C(=NNC(N)=S)c1ccccc1-2)OCC
  ·	2	i	·	-3.8	·	·
> C=CCn1c(O)c(C(C)=NCCO)c(=O)[nH]c1=O
  -1	1	·	0.69	1.8	-7.5	-0.7
> C[n+]1c(-c2ccccc2)cc(-c2ccc(Cl)cc2)cc1-c1ccccc1
  1	-5	i	0.66	-0.1	1.0	-177
> COCCNC(=O)CN1C(=O)CN=C(c2ccccc2)c2ccccc21
  ·	-8	i	0.72	-9.7	-2.6	5.1
> CC1CN=C(Nc2cccc3ccccc23)S1 (stereo not given)
  4	2	·	0.66	2.0	6.0	3.2
> C=CCC1(CN2CCCC2=O)C(=O)NC(=O)NC1=O
  -6	6	·	0.71	-0.7	3.5	1.3
> O=C1NC(=O)C(=Cc2ccc(Oc3ccc([N+](=O)[O-])cc3)cc2)C(=O)N1
  21	-1	·	0.66	-2.0	-2.4	4.4
> CN1CCN(c2ccc(Cl)cc2N)CC1
  10	4	i	0.67	-1.6	-1.2	1.6

More structures.
Sequence of screens: ALR H2O2 inh	Beta2AR agonist	FGF22 binding	Ecoli growth	HNF4A DNA FP	LANA-H2B inh	UCH37 DUB inh
> CN(C(=O)c1ccc(Cl)nc1)C1(c2ccccc2Cl)CCCCC1=O (stereo not given)
  -7	-1	·	0.67	-1.7	1.9	-0.3
> C=C1[C@H]2C[C@H]3[C@H]4N5C[C@]6(C)CCC[C@]47[C@H]([C@H]2O)[C@]3(C[C@]5(O)[C@H]67)[C@@H]1O
  -19	1	i	0.78	-0.8	7.2	2.4
> Cc1ccc(N)cc1Cl
  ·	-3	i	0.71	-0.1	·	3.6
> CC/C(=N\NC(=O)c1ccccc1O)c1c(O)n(C2CCCCC2)c(=O)[nH]c1=O
  37	-4	i	·	1.1	-4.8	·
> CC(NCc1ccc(Cl)cc1)C(O)c1ccccc1 (stereo not given)
  -1	-5	i	0.66	-2.9	2.7	1.8
> CCC1CO/C(=C(\C(Cl)=C(Cl)Cl)[N+](=O)[O-])N1Cc1ccc(Cl)nc1 (stereo not given)
  -10	0	i	0.69	3.3	0.2	7.1
> C(=N\NC1=NCCCCC1)/c1c[nH]c2ccccc12
  45	2	i	·	0.3	0.5	·
> CC12C=CC(=O)C=C1CCC1C2C(=O)CC2(C)C(=O)CCC12 (stereo not given)
  ·	-1	i	0.7	-2.3	·	0.3
> CCC(C)n1c(O)c(/C=N/NC(=O)c2ccncc2)c(=O)[nH]c1=S (stereo not given)
  7	-11	i	0.67	4.4	-1.5	-31
> C=CCc1cc(C=C2C(=O)NC(=O)NC2=O)cc(OC)c1OCc1ccc(C(=O)O)cc1
  11	6	·	·	-2.0	-7.9	·
> COC(=O)C1=C(c2ccc(Cl)c(C(F)(F)F)c2)C[C@@H]2CC[C@H]1N2C(=O)N1CCCC1
  5	-12	i	·	2.0	-1.7	-1.4
> O=C(CN1CCOCC1)c1ccc(Br)cc1
  0	-6	i	0.7	0.7	1.2	6.5
> CCc1c(C)nc(N)nc1N1N=C1SCCOc1ccccc1
  ·	-3	·	0.73	-2.6	-3.0	4.5
> O=C1NC(=O)C2(Cc3ccccc3N3CCCC32)C(=O)N1Cc1ccccc1 (stereo not given)
  -25	-4	·	0.74	4.6	0.9	-13
> COc1ccc(N=Cc2c(O)n(-c3ccc(C)cc3)c(=O)[nH]c2=O)cc1
  -5	-6	i	0.67	0.0	1.4	-337
> Cc1cc(S(N)(=O)=O)ccc1N=Cc1c(O)n(-c2ccccc2)c(=O)[nH]c1=O
  5	-5	i	0.73	1.7	12	5.2
> CNS(=O)(=O)c1ccc(N=Cc2c(O)n(-c3cccc(C)c3)c(=O)[nH]c2=O)cc1
  7	-1	i	0.61	1.8	2.3	2.0
> CCCNC(=O)N1[C@H]2CC[C@@H]1C(C(=O)OC)=C(c1cc3ccccc3o1)C2
  -2	-6	·	·	-2.6	3.9	2.8
> COc1ccc(CCN(C)Cc2c(F)cccc2F)cc1OC
  -4	3	·	0.72	-2.4	3.0	-1.3
> Cc1ccc(S(=O)(=O)Cc2ccc(C(=O)N3CCC4(CC3)OCCO4)o2)cc1
  -1	12	·	0.66	-6.6	-1.9	-1.4
> COCC(=O)N1Cc2ccccc2-n2nncc2C1
  ·	-1	i	·	4.0	·	·

Screens: PubChem BioAssay, several laboratories
